# Vaccinia mCherry = vaccinia inhibition (mCherry reporter); Vaccinia virus mCherry reporter infection, fluorescence; about a quarter of the inactives have no number; Potency, µM (titrated, usually from 36.5 µM), for the others: top-dose activity change, negative = inhibition, usual class: inhibitors; 0.63% of 310,000 active; active = well fitted inhibition curve with a large enough effect; inconclusive = small, poorly fitted or top-dose-only effect; inactive = no such curve, though single readings can be large or run the other way; tested in A549 cells; also: nearly all actives have a fitted effect of over 35% in size; inactives centre near -10
# Vaccinia Venus = inhibitors of vaccinia virus (Venus reporter); Vaccinia virus Venus reporter expression, fluorescence; Potency, µM (titrated, usually from 36.5 µM), for the others: top-dose activity change, negative = inhibition, hits mostly inhibitors; 0.46% of 330,000 active; active means well fitted inhibition curve with a large enough effect; inconclusive means small, poorly fitted or top-dose-only effect; inactive means no such curve, though single readings can be large or run the other way; tested in A549 cells; also: nearly all actives have a fitted effect of over 30% in size; inactives centre near -10
# Numbers without * were called inactive; i = inactive; ? = inconclusive; / = not tested or not shown; & = joins results of further samples; [ ] = another dose, or the depositor's remark. % is scaled to controls: 0 for no effect and ±100 for the full control effect; potency is read from the fitted curve at half-maximal effect.
# The opening 16 entries as a preview:
SMILES,Vaccinia mCherry,Vaccinia Venus
O=C(O)Cc1csc(NC(=O)c2ccco2)n1,/,-14%
CCn1cc(C(=O)NCCc2ccccc2)c(=O)c2cc(S(=O)(=O)N3CCCC3)ccc21,i,-10%
COc1ccc(/C=N/NC(=O)c2ccc(N(C)S(=O)(=O)c3ccccc3)cc2)c(OC)c1,-13%,-16%
COc1cccc(CNc2ccc(C(=O)O)cc2)c1OCc1ccccc1,i,-11%
O=C(CNC(=S)NC(=O)c1ccc(F)cc1)c1ccccc1,-8%,-15%
COC(=O)CC1C(=O)NCCN1C(=O)c1ccc(S(=O)(=O)N2CCOCC2)cc1 (stereo not given),1%,-4%
Cc1cccc(N2CCN(S(=O)(=O)c3ccc4oc(=O)c5ncn(C)c5c4c3)CC2)c1C,-15%,-18%
O=C(CSc1ccc(Cl)cc1)Nc1cccc(-c2nc3ncccc3o2)c1,-8%,0%
CC(C)/C=C/CN1CCN(CCCc2ccccc2)C(CCO)C1 (stereo not given),i,-10%
Cc1sc(NC(=O)CS(=O)(=O)c2ccccc2)c(C#N)c1C,-16%,-2%
CCCOc1ccc(/C=N/NC(=O)CN2CCCCC2)cc1,-10%,-5%
Cc1ccc2[nH]c(=O)c(CN(Cc3cccs3)Cc3nnnn3Cc3ccccc3)cc2c1,-22%,-27%
CCc1ccc(NC(=O)CN(c2ccccc2)S(=O)(=O)N(C)C)cc1,-12%,-13%
Cc1ccc(S(=O)(=O)NCC(=O)Nc2cccnc2)cc1C,i,-8%
COc1ccc(C(=O)CC2(O)C(=O)N(CCc3ccccc3)c3ccc(Br)cc32)cc1OC (stereo not given),-2%,-10%
COc1cc(-c2cc3nc(NCCN(C)C)ccn3n2)cc(OC)c1OC,19%,5%

# Main list (from the top)
SMILES,Vaccinia mCherry,Vaccinia Venus
O=C(O)Cc1csc(NC(=O)c2ccco2)n1,/,-14%
CCn1cc(C(=O)NCCc2ccccc2)c(=O)c2cc(S(=O)(=O)N3CCCC3)ccc21,i,-10%
COc1ccc(/C=N/NC(=O)c2ccc(N(C)S(=O)(=O)c3ccccc3)cc2)c(OC)c1,-13%,-16%
COc1cccc(CNc2ccc(C(=O)O)cc2)c1OCc1ccccc1,i,-11%
O=C(CNC(=S)NC(=O)c1ccc(F)cc1)c1ccccc1,-8%,-15%
COC(=O)CC1C(=O)NCCN1C(=O)c1ccc(S(=O)(=O)N2CCOCC2)cc1 (stereo not given),1%,-4%
Cc1cccc(N2CCN(S(=O)(=O)c3ccc4oc(=O)c5ncn(C)c5c4c3)CC2)c1C,-15%,-18%
O=C(CSc1ccc(Cl)cc1)Nc1cccc(-c2nc3ncccc3o2)c1,-8%,0%
CC(C)/C=C/CN1CCN(CCCc2ccccc2)C(CCO)C1 (stereo not given),i,-10%
Cc1sc(NC(=O)CS(=O)(=O)c2ccccc2)c(C#N)c1C,-16%,-2%
CCCOc1ccc(/C=N/NC(=O)CN2CCCCC2)cc1,-10%,-5%
Cc1ccc2[nH]c(=O)c(CN(Cc3cccs3)Cc3nnnn3Cc3ccccc3)cc2c1,-22%,-27%
CCc1ccc(NC(=O)CN(c2ccccc2)S(=O)(=O)N(C)C)cc1,-12%,-13%
Cc1ccc(S(=O)(=O)NCC(=O)Nc2cccnc2)cc1C,i,-8%
COc1ccc(C(=O)CC2(O)C(=O)N(CCc3ccccc3)c3ccc(Br)cc32)cc1OC (stereo not given),-2%,-10%
COc1cc(-c2cc3nc(NCCN(C)C)ccn3n2)cc(OC)c1OC,19%,5%
O=C(Nc1nnc(-c2ccco2)o1)C1CCCCC1,-2%,19%
Cc1ccc(CNC(=O)C2CCN(S(=O)(=O)c3cnc[nH]3)CC2)cc1,-14%,-7%
Cc1ccc(S(=O)(=O)N2CCCCC2)cc1NC(=O)CN1C(=O)CN(C)C1=O,-2%,2%
CCOc1ccc(NC(=O)CSC2=Nc3ccccc3C3=NC(CC(=O)NCc4ccc5c(c4)OCO5)C(=O)N23)cc1 (stereo not given),-19%,-12%
CCN1C(=O)C(CC(=O)Nc2ccc(Cl)cc2)N(NC(=O)c2ccncc2)C1=S (stereo not given),i,-19%
Nc1c(C(=O)NCc2ccco2)c2nc3ccccc3nc2n1CCN1CCCCC1,-12%,-20%
Cc1ccc2cc3c(N)[nH]nc3nc2c1,i,-8%
COC(=O)c1cnn(-c2ccc(C(=O)Nc3cccc(C(C)=O)c3)cc2)c1N,-3%,-10%
CCN(CC(=O)Nc1ccc(OC)cc1)C(=O)Cc1coc2cc(C)c(C)cc12,-23%,-9%
CCC(=O)N1CC2(c3ccccc3)CN(C(=O)CC)CC(c3ccccc3)(C1)C2=O,-11%,-9%
CC(C)(C)OC(=O)C[C@H]1C/C=C\C[C@H](CC(=O)NCCO)C(=O)N[C@@H](c2ccccc2)COC1=O,-18%,-1%
COc1ccc(-c2cn3c(C)c(C(=O)N4CCCc5ccccc54)sc3n2)cc1,10µM*,?
O=C1c2cccc(OCC(=O)N3CCCc4ccccc43)c2CCN1Cc1cccnc1,?,-29%
O=C(NCC1OCCCN1S(=O)(=O)c1cc(F)ccc1F)C(=O)NC1CCCC1 (stereo not given),i,-3%
CC(=O)c1cccc(OCc2cc(C(=O)N(C)CCc3ccccn3)no2)c1,i,-17%
C/C(=N\NC(=O)c1nc2ccccn2c1C)c1cccc([N+](=O)[O-])c1,-5%,-8%
COC(=O)C(O)(c1ccc(N(C)C(=O)c2cccs2)cc1)C(F)(F)F (stereo not given),-2%,-8%
COc1cccc(NC(=O)C(C)N2C(=O)c3ccccc3C2=O)c1 (stereo not given),i,-10%
N#Cc1cc(-c2cccc(Cl)c2)c[nH]c1=O,-17%,-17%
O=C(Nc1ncccc1O)c1ccc(Oc2ccccc2)cc1,?,-22%
[O-]/C(=C(\C(=S)NCc1ccco1)[n+]1ccccc1)c1ccccc1Br,/,-6%
CCOc1cc(CNCCCN2CCOCC2)cc(Br)c1OCc1ccccc1Cl,?,?
Cc1cc(C)c(OCC(=O)N(C)CC(=O)Nc2ccc(N3CCOCC3)cc2)c(C)c1,-3%,-25%
CNc1ccc(/C=C/C(=O)c2ccc(C)cc2)cc1[N+](=O)[O-],-12%,-4%
COc1ccc(C(=O)C(OC(=O)c2ccccc2Cl)c2ccccc2)cc1 (stereo not given),-25%,-7%
CCN(CC)C(=O)CSC(Nc1cccc(F)c1)=C(C#N)C#N,11%,160%[activator]
Cc1cccc(N2CCN(c3ccc4cc(S(=O)(=O)N5CCCCC5)ccc4n3)CC2C)c1 (stereo not given),-18%,-6%
O=C(O)C1=C[C@H](c2csc3ccccc23)C[C@H](OCc2ccc(CO)cc2)O1,i,3%
CC1(C)CC(NC(=O)c2ccccc2F)CC(C)(C)N1,-15%,-6%
CC(C)(C)c1ccc(OCCNCc2ccccc2)cc1,-23%,?
Cc1ccccc1N(C(=O)CCC(=O)Nc1ccccn1)C(C(=O)NC(C)C)c1ccc(F)cc1 (stereo not given),-5%,-18%
O=C(Cn1nc(-c2ccco2)ccc1=O)Nc1cc(C(F)(F)F)ccc1Cl,-4%,-5%
CC(C)(O)C(=O)NNC(=S)NCc1ccco1,-28%,-4%
COc1ccc2c(CN(Cc3ccccc3)Cc3ccccc3)cc(=O)oc2c1,1%,12%
CC(/C=C/c1ccc(Cl)o1)=C\C(=O)O,16%,5%
CCOC(=O)NCN1C(=O)C2C3C=CC(C3)C2C1=O (stereo not given),-13%,-12%
CCN(CC)c1ccc(C=O)c(OC)c1,-7%,-2%
COc1ccc2cc(CNCCOCCOCCNCc3ccc4cc(OC)ccc4c3)ccc2c1,?,?
CC(=O)c1c(C)[nH]c(C(=O)CSc2nnc(N)s2)c1C,-4%,-3%
CCN1c2ccccc2-c2nc3ccccc3n2C1c1cccnc1 (stereo not given),-10%,-4%
O=C(CCN=C1NS(=O)(=O)c2ccccc21)OCC(=O)c1ccc(F)cc1,i,4%
C[C@@H]1CN([C@@H](C)CO)C(=O)CCCn2cc(nn2)CO[C@H]1CN(C)C(=O)Oc1ccccc1,-1%,-4%
O=C(CN1CCCC1=O)NC1CCCc2c1cnn2-c1cc(F)cc(F)c1 (stereo not given),-8%,-2%
Cc1ccc(-c2n[nH]c(=S)n2/N=C/c2sccc2C)cc1,-8%,16%
# Additional results follow.
SMILES,Vaccinia mCherry,Vaccinia Venus
O=C1N(c2ccccc2)C(c2cccnc2)N2CCCN12 (stereo not given),3%,-2%
Cc1cccc(C(=O)Nc2ccccc2NC(=O)c2cccc(C)c2)c1,i,-23%
COc1ccc(-n2c(CNC(=O)c3cccc(OC)c3OC)nnc2SC)cc1,-11%,6%
O=C(CSc1nnc(SCc2ccc(Cl)cc2)s1)N/N=C/c1c[nH]c2ccccc12,?,11µM*
COCCNC(=O)CCCn1c(SCc2ccccc2C)nc2c(sc3ccccc32)c1=O,-23%,-16%
Cc1c2c(n3c(nc4ccccc43)c1C#N)N(CCN1CCOCC1)CC2,-16%,-13%
Cc1nc2c(-c3ccc(Cl)cc3)c(C)[nH]n2c(=O)c1Cc1ccccc1,6.3µM*,?
Cc1cccc(-n2ncc3c(N4CC(C)CC(C)C4)ncnc32)c1 (stereo not given),6%,-8%
O=S1(=O)CCOC[C@H](c2ccccc2)N1Cc1cccc(F)c1,i,-7%&-7%
CCCOC(=O)CCn1c(=S)oc2ccccc21,-4%,-5%
CN(CCC#N)C(=O)COC(=O)c1ccc(Cl)c(S(=O)(=O)N(C)c2ccccc2)c1,-12%,-8%
C1=C/C(=C2/C=Cc3ccccc32)c2ccccc2N1,-18%,-46%
COc1ccc(-n2cnnc2SCC(=O)Nc2cccnc2Cl)cc1,i,0%
C/C(=N\NC(=O)CNC(=O)C1COc2ccccc2O1)c1ccc(Cl)cc1 (stereo not given),-27%,-13%
COc1ccc(OC)c(S(=O)(=O)N2Cc3ccccc3CC2C(=O)Nc2ccc(C)cc2C)c1 (stereo not given),-14%,-18%
CCOC(=O)CNC(=O)c1ccc2c(c1)OCCO2,/,-11%
CC1CCCC12NC(=O)NC2=O (stereo not given),i,-7%
CC(C)c1ccc(-n2nnnc2SCc2nc(N)nc(N)n2)cc1,4%,-6%
COc1ccc(OC)c(NC(=O)CSc2nnc(C3CCCCC3)n2N)c1,-17%,-8%
Cc1ccc(Cl)cc1N1CCN(CCCNC(=O)c2nnc(Cc3cccc(Cl)c3)o2)CC1,-27%[7.34 µM],-21%[7.34 µM]
CC(C)[C@@H]1Cc2[nH]c(=O)[nH]c(=O)c2[C@H](C)O1,5%,1%
CCOc1cccc2sc(N(CCCN(C)C)C(=O)c3ccc(S(=O)(=O)N(C)c4ccccc4)cc3)nc12,?,?
CC(c1ccccc1)n1c(Br)nc2c1c(=O)[nH]c(=O)n2C (stereo not given),-1%,-18%
CCCCN(Cc1ccccc1)C1CCN(CCc2ccccc2)CC1,-29%,-17%
COc1cccc(C(=O)NNC(=O)C2CC(C)=C(C)CC2C(=O)O)c1 (stereo not given),/,?
COC(=O)C1(CCSC)NC(c2ccccc2OC)C2C(=O)N(C)C(=O)C21 (stereo not given),-11%,-8%
CCCNC(=O)c1ccccc1NC(=O)COc1cccc2c1OC(C)(C)C2,-5%,-10%
COc1ccc(Cc2[nH]n3c(=O)cc(C)nc3c2-c2ccccc2)cc1,i,-17%
CCC(C)(C)n1nnnc1C(c1ccc(OC)c(OC)c1)N1CCN(c2ccc(F)cc2)CC1 (stereo not given),/,-6%
O=C(NCCc1c[nH]c2ccccc12)C(=O)NCC(c1ccco1)N1CCN(c2ccccc2F)CC1 (stereo not given),-22%,-20%
Cc1ccc(S(=O)(=O)Nc2cccnc2)cc1C,i,-16%
Cc1cccc(N2CCN(C(=O)CNC(=O)C3CCCCC3)CC2)c1C,-15%,?
Cc1ccc2ncccc2c1NC(=S)NC(=O)c1ccccc1,i,12%
OC[C@@H]1CN(Cc2ccc3c(c2)OCO3)C[C@H](n2cnc3c(NCc4ccco4)ncnc32)O1,i,0%
COC(=O)CCC(=O)NNC(=O)c1cccc(Br)c1,-11%,-12%
Cc1ccc(C)c(/C=N/NC(=S)NC(C)C)c1,-4%,-17%
COc1cccc(-n2nnc3c(=O)n(Cc4ccc(F)cc4)cnc32)c1,i,-8%
O=C(O)C(c1ccccc1)C1CCCCC1O (stereo not given),i,-5%
Cc1cc(N2CCCC2)ccc1NC(=O)COc1ccccc1,-24%,-8%
CCc1cc2c(SC(C)C(=O)NC3CCCC3)ncnc2s1 (stereo not given),-13%,-24%
CCCn1cnc2cc(NCc3cccc(OC)c3)ccc21,-11%,-15%
O=C(CN(C(=O)c1csnn1)c1ccc(F)c(Cl)c1)NCc1ccc2c(c1)OCO2,-17%,-13%
COCC(C)n1c(C)cc(C(=O)COc2ccc(S(=O)(=O)N3CCOCC3)cc2Cl)c1C (stereo not given),-16%,-13%
Cc1ccccc1NC(=O)Cn1nc(C(F)(F)F)cc1C1CC1,-15%,-9%
CSCCC(C(=O)NC1CCCC1)n1c(-c2ccccn2)nc2ccccc21 (stereo not given),14%,-2%
O=C(COC(=O)c1ccc(Cl)nc1)Nc1nnc(-c2ccccc2)o1,-18%,-5%
Cc1nn(Cc2ccccc2Cl)c(C)c1NC(=O)CCCn1nc(C)c([N+](=O)[O-])c1C,-21%,-19%
COc1ccc(CN2CCNC(=O)C2CC(=O)NCC2CCOCC2)c(F)c1 (stereo not given),-15%,-14%
Cc1cc2c(=O)oc(-c3ccc(Br)cc3)nc2s1,i,5%
Cc1c(O)cc2c(c1O)C(=O)CC(c1ccc(O)cc1)O2 (stereo not given),23%,8%
CCCn1c(SCC(=O)NCc2ccc(C)cc2)n[nH]c1=O,i,-10%
CCc1nc2c(OCCOc3ccccc3)cccn2c1N(C)C(=O)c1ccccc1F,21%,-14%

# Compound activity (PubChem)
